UCH37 inh: inhibitors of human UCH37 deubiquitinase, primary screen, biochemical, Ub-AMC cleavage, fluorescence; Ubiquitin carboxyl-terminal hydrolase isozyme L5 (Homo sapiens), Q9Y5K5; purified proteasome/UCH37; inhibition, % (concentration not given with the values); 330,000 compounds, 0.33% hits; AID 588478, 2011;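 active = mean of two replicates above 20%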;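 note: 0% = compound-free wells with enzyme and 100% = wells lacking proteasome; stock transfer was 100 nL into about 20 µL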
Target sequence (Q9Y5K5 whole entry, looked up): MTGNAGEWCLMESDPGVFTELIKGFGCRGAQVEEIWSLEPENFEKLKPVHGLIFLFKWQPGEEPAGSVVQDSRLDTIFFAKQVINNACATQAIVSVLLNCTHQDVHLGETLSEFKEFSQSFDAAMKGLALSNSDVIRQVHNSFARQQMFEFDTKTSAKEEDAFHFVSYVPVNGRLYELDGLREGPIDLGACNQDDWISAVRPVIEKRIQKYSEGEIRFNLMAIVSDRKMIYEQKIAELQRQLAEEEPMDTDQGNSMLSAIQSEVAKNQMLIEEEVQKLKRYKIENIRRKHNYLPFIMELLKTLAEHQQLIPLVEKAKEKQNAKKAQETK
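Material: Human UCH37 enzyme supplied as purified proteasome complex | Schedule: 30 min preincubation with enzyme, 25 min cleavage at room temperature | Detection: AMC fluorescence 355/460 nm | Measure: % inhibition of Ub-AMC cleavage fluorescence | Controls: Wells without proteasome as full block, compound-free enzyme plus substrate as uninhibited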
Ecoli growth: E. coli growth inhibition, primary screen, OD600. 330,000 compounds, 0.21% hits. OD600 absorbance (concentration not given with the values). Escherichia coli growth, 23 h; hits give low values;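 active = OD600 absorbance below the run mean of sample wells minus 3.6 SD, in any replicate, cut at about 0.56 in these data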;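 note: stock transfer was 300 nL into about 60 µL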
T cruzi inh: inhibitors of intracellular T. cruzi growth, primary screen, luminescence, NIH3T3 host cells; T. cruzi beta-gal in NIH3T3, 90 h; inhibition, % (test concentration not listed); 300,000 compounds, 1.4% hits; AID 1885, 2009;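 active = mean inhibition across valid replicates above about 55%, limit read from the data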;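 note: signal also drops with host cell toxicity which is not excluded here; 0% = plate median of DMSO wells and 100% = zero luminescence signal; higher percent means less beta-gal luminescence so fewer parasites; stock transfer was 50 nL into about 50 µL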
A1 inh: caspase 3/7 activation in MEF A1-2A-BIM cells, primary screen, A1 inhibitor project, cell-based, luminescence, HTS; Caspase-Glo 3/7 luminescence, 3 h; percent of clofoctol response, vehicle zero; caspase activation, % (test concentration not listed); AID 2462, 2010; 330,000 compounds, 0.066% hits;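 active = over half of replicate activation scores above 10%, or exactly half above 10 with the replicate mean above 10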;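 note: wells of about 30 µL received 50 nL stock; many hits fall short of the cut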
FGF22 binding: binders of human FGF22 protein, primary screen, FGF22 synaptogenesis inhibitor project, biophysical, thermal shift, single point; Fibroblast growth factor 22 (Homo sapiens), Q9HCT0; recombinant FGF22 thermal shift, SYPRO orange fluorescence; percent of sucrose octasulfate shift, DMSO zero; calls only at 9.99 µM; 340,000 compounds, 1.5% hits;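 active = melting point raised past a set limit in the mean and every replicate; three in four hits are not shown here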
Ecoli rRNA inh: reduced GFP signal of wild-type E. coli, primary screen, bacterial rRNA inhibitor project, GFP/RFP fluorescence, OD600, single point. E. coli WT GFP vs humanized-ribosome RFP mutants, 24 h; hits give low values; DMSO median 0, no signal -100. GFP signal change (wild-type ribosome), % (concentration not given with the values). 350,000 compounds, 1.6% hits. AID 720706, 2013;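 active = significant combined selectivity score with lowered wild-type GFP, culture density cut under 30%, mutant RFP and density less affected; inactive = any of these conditions unmet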; note: one replicate is shown; some compounds called inactive have numbers as strong as hits
AF4-AF9 inh: inhibitors of AF4 peptide binding to AF9, primary screen, biochemical, AlphaScreen, biotin-AF4 peptide, FLAG-AF9, single point; Protein AF-9 (Homo sapiens), P42568; 350,000 compounds, 0.47% hits; inhibition, % at 10 µM; AID 651704, 2012;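 active = every replicate reaching a set inhibition limit, whatever the replicate mean, cut at about 25% in these data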;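 note: 0% = plate neutral control median and 100% = total signal loss; the record names both 10 and 1 µM as test concentration; the first replicate is given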
Target sequence (P42568 whole entry, looked up): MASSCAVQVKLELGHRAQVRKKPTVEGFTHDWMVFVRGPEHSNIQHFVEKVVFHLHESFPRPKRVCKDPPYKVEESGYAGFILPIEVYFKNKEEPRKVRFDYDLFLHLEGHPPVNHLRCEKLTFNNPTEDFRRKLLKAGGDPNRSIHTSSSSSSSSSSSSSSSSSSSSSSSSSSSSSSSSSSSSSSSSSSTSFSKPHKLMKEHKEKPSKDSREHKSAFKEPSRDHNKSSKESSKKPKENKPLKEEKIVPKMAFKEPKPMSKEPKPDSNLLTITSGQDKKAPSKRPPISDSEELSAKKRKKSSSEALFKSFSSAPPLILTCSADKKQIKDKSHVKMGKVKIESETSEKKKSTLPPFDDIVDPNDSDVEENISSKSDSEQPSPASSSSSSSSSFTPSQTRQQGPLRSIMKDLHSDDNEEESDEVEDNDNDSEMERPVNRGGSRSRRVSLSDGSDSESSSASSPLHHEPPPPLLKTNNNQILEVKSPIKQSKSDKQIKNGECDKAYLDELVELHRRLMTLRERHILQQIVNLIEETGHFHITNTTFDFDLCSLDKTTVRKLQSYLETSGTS
Beta cell apopt: inhibitors of cytokine-induced beta cell apoptosis, primary screen, luminescence; INS-1E cytokine-induced death, ATP luminescence, 48 h; percent of positive-control rescue, neutral wells zero; protection from apoptosis, % (no concentration beside the values); 300,000 compounds, 0.8% hits;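 active = all replicates at 75% or more, or half of them and the mean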;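 note: 0% = cytokine-treated negative control wells and 100% = positive control rescue; higher means more ATP so stronger rescue from cytokine killing; wells of about 40 µL received 100 nL stock; the first replicate is given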
Ecoli rRNA inh OD600: further read-out of Ecoli rRNA inh, marked with its call; OD600 change, %; measured here: OD600 growth;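 optical density of the mix in the first replicate; 0 = DMSO median and -100 = no signal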
Ecoli rRNA inh RFP: recorded beside Ecoli rRNA inh, whose call it bears; RFP signal change, %; measured here: RFP humanized mutant strains;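 first replicate; 0 = DMSO median and -100 = no signal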
Starred values were filed as active, the others as inactive; i = inactive; . = not tested or not shown. The list is partial (hit frequency here may not be typical).

Every second line gives: UCH37 inh	Ecoli growth	T cruzi inh	A1 inh	FGF22 binding	Ecoli rRNA inh	Ecoli rRNA inh OD600	Ecoli rRNA inh RFP	AF4-AF9 inh	Beta cell apopt
1. O=S(=O)(c1ccc(Br)c2ccccc12)N1CCCC1
→ 2.2	0.657	13.7	-0.7	i	-17.0	-16.7	-11.2	-3.0	.
2. Cc1ccc(C(=O)N/C(=C/c2cccs2)C(=O)N2CCCCC2)cc1
→ 5.8	0.734	-5.8	0.0	i	1.5	0.6	-1.4	-0.2	-2.4
3. Cc1ccc(C(=O)CCNc2ccc(Cl)cc2)o1
→ 1.1	0.722	12.1	-0.8	.	.	.	.	.	-7.5
4. Cc1c(C(=O)O)c(C(=O)O)c2n1CCS2
→ 2.5	0.69	-32.1	-0.3	i	.	.	.	1.2	1.4
5. O=C(Nc1ccc2c(c1)OCCO2)c1c(F)c(F)c(F)c(F)c1F
→ 1.8	0.709	16.5	-0.5	.	.	.	.	.	.
6. c1ccn(-c2ccc(-c3ccn[nH]3)cc2)c1
→ 3.4	0.602	10.6	-5.3	i	-17.2	-44.3	19.4	8.3	-6.9
7. O=C(NCC(F)(F)F)N1CCOCC1
→ 2.2	0.714	0.5	0.1	.	.	.	.	.	0.8
8. CCOC(=O)c1cc(-c2ccc(OC)cc2)nc2c1c(C)nn2CCC#N
→ -383.5	0.718	7.9	-0.4	.	.	.	.	.	6.4
9. CC1=CC(C)[C@H](/C=N/n2c(=O)[nH]c3c([nH]c4ccc(C)cc43)c2=O)C(C)C1 (some centres undefined)
→ .	.	6.6	2.5	i	0.8	8.0	3.9	-12.0	25.3
10. CCOc1cc(C(=O)Nc2cc(F)ccc2C)ccc1OCC(=O)N1CCOCC1
→ 5.1	0.712	.	-1.5	i	4.1	6.2	-1.4	0.3	-3.6
11. COc1ccc(/C(O)=C2\C(=O)C(=O)N(c3cc(C)on3)C2c2ccccc2OC)cc1C (centres undefined)
→ 9.5	0.708	-6.8	1.2	.	.	.	.	.	-0.2
12. COc1cc(OC)cc(C(=O)N[C@H](C(=O)OCC(=O)c2ccc(F)cc2)C(C)C)c1
→ 5.4	0.707	.	-0.1	i	-18.6	-18.6	-2.4	-3.3	-1.8
13. COc1cccc(C(=O)OC(C)CN2CCCC2)c1 (centres undefined)
→ -0.4	0.727	-15.0	0.3	.	.	.	.	.	3.0
14. Cc1cc(C)cc(N(C(C)C(=O)Nc2c(C)n(C)n(-c3ccccc3)c2=O)S(C)(=O)=O)c1 (centres undefined)
→ 2.1	0.73	0.6	-0.4	.	.	.	.	.	-6.6
15. Oc1c(C=NCc2ccccc2)sc2ccccc12
→ 1.2	0.623	0.3	-2.9	i	-14.0	-3.3	19.6	20.8	-4.7
16. CCC(=O)Nc1nnc(SCc2ccccc2F)s1
→ 0.1	0.681	.	-0.1	i	9.5	9.6	1.1	-2.1	.
17. O=C(Cc1nc(-c2ccc([N+](=O)[O-])cc2)cs1)Nc1ccccc1
→ 4.2	0.721	30.2	0.1	i	-10.0	-5.9	-3.3	-50.9	9.3
18. Cc1cc(C(=O)N2CCN(S(=O)(=O)c3ccccc3F)CC2)c(C)o1
→ -0.7	0.737	1.5	0.3	i	8.7	10.8	-1.1	1.8	0.6
19. CCN(Cc1ccccc1)C(=O)CN1C(=O)c2ccccc2C1=O
→ 3.9	0.681	-4.6	0.1	i	6.1	2.3	-2.8	-2.8	-7.3
20. COc1cccc(-n2c(-c3ccco3)nc3nc4ccccc4nc32)c1
→ -85.5	0.672	2.1	0.8	i	7.3	14.8	4.2	-0.1	1.8
21. COC(=O)c1nnn(-c2ccc(Cl)c(Cl)c2)c1C(=O)OC
→ 5.8	0.73	-11.3	-0.5	i	-2.1	9.1	-2.1	-2.9	-5.7
22. O=C(OCc1nc2ccccc2s1)c1cc2ccccc2oc1=O
→ -19.7	0.641	-8.3	0.2	.	.	.	.	.	-5.2
23. O=C(NC(Cc1ccccc1)C(=O)O)/C(=C/c1ccc([N+](=O)[O-])cc1)NC(=O)c1ccccc1 (centres undefined)
→ 7.8	0.672	-3.1	-0.8	i	2.0	3.2	-2.5	-3.2	-3.8
24. COC(=O)C1CCN(C(=O)COC(=O)Cn2cnnn2)CC1
→ -0.8	0.702	9.3	0.6	.	.	.	.	.	-3.0
25. Cc1cc2ccccc2c(=O)n1CC(=O)NCC(=O)N1CCN(c2cccc(Cl)c2)CC1
→ -2.9	0.709	6.1	1.0	.	.	.	.	.	-1.5
26. c1ccc(CSc2ncnc3c2cnn3-c2ccccc2)cc1
→ 0.2	0.661	-11.9	-3.2	.	.	.	.	.	3.5
27. CSC1=NCCN1S(=O)(=O)c1ccc(F)cc1
→ 3.1	0.695	1.7	-0.1	i	3.3	13.8	2.2	-2.6	-4.4
28. CC(C)Nc1ncnc2c1cnn2Cc1ccc(Cl)cc1
→ 1.6	0.669	0.0	0.5	i	-1.2	-2.6	-1.0	-1.8	-6.5
29. CC1Sc2ccc(Cl)cc2-c2nc(N)ncc21 (centres undefined)
→ -2.2	0.672	-3.0	-0.7	i	-37.0	-53.4	2.3	4.4	-11.7
30. CCc1ccc(NC2=NC(C(=O)NC3CCCCC3)CC(=O)N2)cc1 (centres undefined)
→ 2.4	0.667	7.5	-0.2	.	.	.	.	.	1.6

Other entries.
Every second line gives: UCH37 inh	Ecoli growth	T cruzi inh	A1 inh	FGF22 binding	Ecoli rRNA inh	Ecoli rRNA inh OD600	Ecoli rRNA inh RFP	AF4-AF9 inh	Beta cell apopt
31. CCOC(=O)c1cc(C(=O)OCC)c2cc(Br)ccc2n1
→ 3.3	0.702	-7.3	0.0	.	.	.	.	.	-4.2
32. CC(C)(C)n1cnc2cc(NC(=O)c3ccc(Cl)cc3)ccc21
→ -1.1	0.639	-25.7	-1.9	i	-17.7	-13.8	-1.8	-0.8	-6.3
33. Cc1ccc(C(=O)Nc2nnc(Cc3ccccc3)s2)cc1
→ 1.2	0.677	-8.7	0.0	i	1.2	14.4	6.0	-6.2	-1.8
34. CCOC(=O)c1ccc(N2C(=O)CC(N(C)Cc3ccccc3)C2=O)cc1 (centres undefined)
→ 2.6	0.669	1.5	-0.1	.	.	.	.	.	-3.3
35. O=C(CN1C(=O)c2ccccc2C1=O)Nc1cccc(S(=O)(=O)Nc2ccccc2Cl)c1
→ .	.	-5.6	0.8	i	-25.9*	-5.5*	6.9*	-6.1	-2.9
36. COc1cccc(-c2cc(C(F)(F)F)nc(N3CCOCC3)n2)c1
→ -16.7	0.675	33.7	0.6	.	.	.	.	.	-0.5
37. CCCCNC(=O)n1c(SC)nc2ccccc21
→ 0.5	0.72	-18.3	0.4	.	.	.	.	.	3.7
38. O=C(CSc1nc2ccccc2s1)NNC(=O)Nc1ccc(Cl)c(Cl)c1
→ 1.0	0.74	-3.4	-1.1	.	.	.	.	.	-3.7
39. CC(CC(=O)NC1CCCC1)c1ccccc1 (centres undefined)
→ 2.0	0.713	-2.0	-0.3	.	.	.	.	.	-1.1
40. c1ccc2cc3c(NCCN4CCOCC4)ccnc3cc2c1
→ -163.8	0.647	.	.	i	-17.0	-13.8	-3.6	1.2	.
41. COC(=O)c1ccc(CNC(=O)COC(=O)CC23CC4CC(CC(Br)(C4)C2)C3)cc1
→ 6.3	0.704	4.9	-0.8	i	7.5	3.6	-1.7	2.9	.
42. COc1ccc(CNC(=O)C(C)Sc2ccc(C)cc2)cc1 (centres undefined)
→ 1.5	0.636	8.8	0.3	i	-15.4	-21.6	-3.2	-1.7	-3.4
43. CC1CCCN(CC(=O)Nc2ccc(S(=O)(=O)N3CCCCC3)cc2)C1 (centres undefined)
→ 4.5	0.699	-3.8	0.5	.	.	.	.	.	-1.6
44. COc1ccc(S(=O)(=O)Cc2ccc(C(=O)N3CCN(c4cccc(C)c4C)CC3)o2)cc1
→ 4.7	0.734	16.5	0.0	i	-4.4	-2.0	3.5	3.6	.
45. CCCSC(=O)N(CC)CC(=O)Nc1c(CC)cccc1CC
→ 0.7	0.693	4.9	0.9	.	.	.	.	.	-7.5
46. O=C1CCCC(O)=C1Sc1ccccc1C(=O)O
→ 0.4	0.674	-23.7	0.1	i	3.3	6.7	-0.6	-2.5	2.9
47. COc1cc([N+](=O)[O-])ccc1NC(=O)C1CCCN(S(C)(=O)=O)C1 (centres undefined)
→ 7.2	0.691	.	1.2	i	2.0	10.4	-0.9	-0.5	-2.8
48. CC1(NC(=O)c2cc(S(=O)(=O)N3CCCCC3)ccc2Cl)CCS(=O)(=O)C1 (centres undefined)
→ 3.5	0.671	0.0	0.9	.	.	.	.	.	-4.7
49. COC(=O)c1ccsc1NC(=O)CCS(=O)(=O)c1ccccc1
→ 3.1	0.697	9.6	-0.6	i	0.3	3.5	0.4	-0.3	-15.0
50. COc1ccccc1OCCCCCNCCO
→ -2.6	0.627	-14.3	-0.9	i	-0.6	-11.8	1.4	-83.5	.
51. COc1ccc(S(=O)(=O)Cc2ccc(C(=O)NCc3ccccc3OC)o2)cc1
→ 0.9	0.668	10.5	-0.2	i	-9.2	-10.7	3.7	2.2	-2.5
52. CCOC(=O)/C(=C/c1ccccc1)NC(=O)c1ccco1
→ 3.6	0.706	-11.2	0.8	.	.	.	.	.	-0.9
53. COc1cc(C2NC(=O)NC(C)=C2C(=O)OCc2ccccc2)ccc1O (centres undefined)
→ 1.7	0.647	-2.3	-0.9	i	-10.4	-10.9	0.8	5.0	3.7
